High-throughput results as filed in PubChem BioAssay.
Methyltransferases: Primary Screen for Target Class Profiling of Small Molecule Inhibitors of Methyltransferases; purified enzyme, MTase-Glo SAH luminescence; active compounds read low; calls only at 40 µM; 25,000 tested, 3.9% active; AID 1745853, 2022; active = -50% or lower on at least one of six enzymes; inconclusive = the cases between; inactive = as a rule above -30% on all six;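 further: enzymes were COMT GAMT GNMT HNMT NNMT and PNMT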
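Each enzyme was assayed with SAM and its substrate. SAH formation detected by MTase-Glo luminescence; single-point 40 uM screen[…].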
Calls only; i = inactive; ? = inconclusive; + = active, no number. On the % scale 0 is the no-effect control and ±100 the full control effect. These rows are one share of the data; rates above refer to the full screens.

SMILES | Methyltransferases
Cc1cccc(N2CCN(S(=O)(=O)c3ccc4c(c3)n(C)c(=O)n4C)CC2C)c1 (stereo unspecified) | i
CC(C)CNC(=O)c1nc(-c2ccc(Cl)cc2)c2cnccn12 | ?
CCOC(=O)[C@H](CCc1ccccc1)N[C@H]1CCCN2CCC[C@@H](C(=O)O)N2C1=O | ?
CCCCN1C(=O)c2cc(C(=O)NCc3ccc(F)cc3)nn2CC1(C)C(=O)NC1CCCC1 (stereo unspecified) | i
CC(=O)N[C@H]1[C@H](O[C@H]2CC[C@@]3(C)C(CC[C@]4(C)C3CC=C3[C@@H]5CC(C)(C)CC[C@]5(C(=O)OC5OCC(O)C(O)C5O)CC[C@]34C)C2(C)C)O[C@H](COC2OC(C)C(O)C(OC3OC(C)C(O)C(O)C3O)C2O)[C@@H](O)[C@@H]1O (stereo partly specified) | i
Cc1cc2cc(-c3c(C)noc3C)nc(N3CCN(c4ccccn4)CC3)c2o1 | i
O=C(c1ccccc1F)N1CC2(C1)C(=O)Nc1ccccc12 | i
Cc1nnc(N2CCC3(CCC(=O)N(CCCN(C)C)C3)CC2)c2ccccc12 | i
CCOC(=O)c1cc2n(n1)CC(C)(C(=O)NCc1ccc(C)cc1)N(Cc1cccc(OC)c1)C2=O (stereo unspecified) | i
CCCC1c2cccn2CCN1C(=O)Nc1ccc(OC)cc1 (stereo unspecified) | ?
Cc1ccc(Sc2cncc3sc(C(N)=O)cc23)cc1 | i
CCc1ccc(NC(=O)CSc2nnc3n(CCc4ccccc4)c(=O)c4ccccc4n23)cc1 | i

Brought forward from above: seven compounds; new compounds follow.
SMILES | Methyltransferases
Cc1cc2cc(-c3c(C)noc3C)nc(N3CCN(c4ccccn4)CC3)c2o1 | i
O=C(c1ccccc1F)N1CC2(C1)C(=O)Nc1ccccc12 | i
Cc1nnc(N2CCC3(CCC(=O)N(CCCN(C)C)C3)CC2)c2ccccc12 | i
CCOC(=O)c1cc2n(n1)CC(C)(C(=O)NCc1ccc(C)cc1)N(Cc1cccc(OC)c1)C2=O (stereo unspecified) | i
CCCC1c2cccn2CCN1C(=O)Nc1ccc(OC)cc1 (stereo unspecified) | ?
Cc1ccc(Sc2cncc3sc(C(N)=O)cc23)cc1 | i
CCc1ccc(NC(=O)CSc2nnc3n(CCc4ccccc4)c(=O)c4ccccc4n23)cc1 | i
CC1CCN(S(=O)(=O)c2ccc3c(c2)oc(=O)n3CC(=O)N2CCN(C3CCCCC3)CC2)CC1 | i
O=C(/C=C\n1cnc(-c2cc(C(F)(F)F)cc(C(F)(F)F)c2)n1)N1CC(F)(F)C1 | i
O=C(Cn1ccc2cc(S(=O)(=O)N3CCCCC3)ccc21)NCCc1ccccc1Cl | i
Cc1ccc(S(=O)(=O)NCc2ccc(C(=O)NCCN(Cc3ccccc3)C(C)C)cc2)cc1 | i
CC(C)CNC(=O)c1ccc2c(=O)n(C(C)C)c3nn(CC(=O)N(C)c4ccccc4)c(=O)n3c2c1 | i
COC(=O)[C@@H]1Cc2ncn(Cc3ccc(Cl)cc3)c2CN1Cc1cccnc1 | i
CCC(C)C(=O)O[C@H]1CCC=C2C=C[C@H](C)[C@H](CC[C@@H](O)C[C@@H](O)CC(=O)O)[C@H]21 (stereo partly specified) | i
COc1cc(OC)cc(C(=O)NCC2CCCN(Cc3cc4ccccc4o3)C2)c1 (stereo unspecified) | i
CSc1ccc(CCNC(=O)c2cc3n(n2)CC(C)(C(=O)NCCC(C)C)N(C)C3=O)cc1 (stereo unspecified) | i
C[C@H](C/C=C/C(C)(C)O)[C@H]1CC[C@@]2(C)[C@@H]3[C@@H](O[C@@H]4O[C@H](CO)[C@@H](O)[C@H](O)[C@H]4O)C=C4C(CC[C@H](O)C4(C)C)[C@]3(C=O)CC[C@]12C (stereo partly specified) | i
Cc1ccc(-n2cc(CN3CCN4CCCC4C3)c(-c3cccc(C)c3)n2)cc1 (stereo unspecified) | i
Cc1cnc(CCNC(=O)Nc2ccc3c(c2)OCCO3)n1C1CCC1 | +
COc1ccc(-c2cc3n(n2)CC(C)(C(=O)NCc2ccccc2)N(Cc2ccccc2)C3=O)cc1 (stereo unspecified) | i
c1ccc(CN2CCC3(CCCc4ccccc43)CC2)cc1 | i
CN1CCC(NC(=O)CC2(Cc3ccccc3)C(=O)N(C)c3ccccc32)CC1 (stereo unspecified) | i
CC1(CO)CC2C(O)C3=C(CC(C)(O)C2C1)C(=O)OC3 (stereo unspecified) | i
COC(=O)c1ncn2c1C(=O)N(Cc1cccc(C)c1)C(C)(C(=O)NC1CCCCCC1)C2 (stereo unspecified) | i
CC(C)[C@@H](C)/C=C/[C@@H](C)[C@H]1CC[C@H]2C3=CC=C4C[C@@H](O)CC[C@]4(C)C3=CC[C@]12C | i
C[C@H](CN(C)C)Oc1nc(Nc2cc3cccc(Cl)c3cn2)cnc1C#N | ?
COC12CC3C(C(C)C1=CC(=O)O2)C(O)C(OC(C)=O)C1C(C)(C)C(OC(C)=O)CCC31C (stereo unspecified) | i
CC1(C(=O)NC2CCCCCC2)Cn2c(cc3occc32)C(=O)N1Cc1ccccc1Br (stereo unspecified) | i
COCCCNC(=O)c1cc2n(n1)CC(C)(C(=O)NC1CCCCC1)N(C)C2=O (stereo unspecified) | i
COc1ccc(C)cc1NC(=O)N1CCCC1c1nncn1C1CCCC1 (stereo unspecified) | i
[N-]=[N+]=N[C@]1(CO)O[C@@H](n2ccc(=O)[nH]c2=O)[C@@H](O)[C@@H]1O | i
CC(C)CNC(=O)c1ccc2c(=O)n(CC(C)C)c3nn(CC(=O)Nc4cccc(F)c4)c(=O)n3c2c1 | i
CCOc1cccc(CN(C)C(=O)CN2CC3(CCN(C)CC3)CC2=O)c1 | i
CC(C)CC(=O)OC[C@@]1(O)C[C@@]23CC[C@H]4[C@@](C)(CCC[C@@]4(C)C(=O)O)[C@@H]2CC[C@@H]1C3 | i
CCS(=O)(=O)Nc1ccc(C)n(CC(=O)NC2CCCCC2)c1=O | i
CC(/C=C/C=C(\C)C(=O)O[C@@H]1O[C@H](CO[C@@H]2O[C@H](CO)[C@@H](O)[C@H](O)[C@H]2O)[C@@H](O)[C@H](O)[C@H]1O)=C\C=C\C=C(C)\C=C\C=C(/C)C(=O)O[C@@H]1C[C@](O)(C(=O)O)C[C@@H](O)[C@H]1OC(=O)/C=C/c1ccc(O)c(O)c1 | ?
CCCS(=O)(=O)N1C[C@@H]2C(=O)N(CCC3CCN(C(C)C)CC3)C(=O)[C@@H]2C1 | i
Cc1onc(-c2ccccc2Cl)c1C(=O)N(C)c1ccc(Cl)cc1 | i
COC(=O)[C@H]1CN(C(=O)NC(C)C)CCN1C(=O)C1CCCCC1 | i
CC/C=C\CCO[C@@H]1O[C@H](CO[C@@H]2OC[C@H](O)[C@H](O)[C@H]2O)[C@@H](O)[C@H](O)[C@H]1O | i
C=CCN1C(=O)c2ccc(-c3ccco3)n2CC1(C)C(=O)NCc1ccc(Cl)cc1 (stereo unspecified) | i
Cc1nn(-c2ccccn2)c(C)c1[C@@H]1C=C[C@@H](NC(=O)NC(C)C)C1 | i
CCn1cnnc1CC1CCN(S(=O)(=O)c2ccc(OC)cc2)CC1 | i
COc1ccc(CNC(=O)c2sc3nc(C)cc(C)c3c2N)cc1 | i
CC(C)CCNC(=O)[C@H](CC(C)C)NC(=O)[C@H]1O[C@@H]1C(=O)O | i
CC[C@H](C)/C=C(C)/C=C/C1=CC2=C(Cl)C(=O)[C@](C)(O)[C@H](OC(C)=O)[C@H]2CO1 | i
NC(=O)COc1cccc(CN2CCN(c3ccc(F)cc3F)CC2)c1 | i
C[C@]12CCC[C@](C)(C(=O)O)C1CCC13CC(CO)C(CCC12)C3 (stereo partly specified) | i
c1cnc(N2CCOCC2)c(OC2CCNC2)n1 (stereo unspecified) | i
CCCn1c(=O)c2ccc(C(=O)NC(C)C)cc2n2c(=O)n(CC(=O)Nc3ccc(Cl)cc3)nc12 | i
Cc1cc(F)ccc1NS(=O)(=O)c1ccc2[nH]c3c(c2c1)CCCC3 | ?
CC(C)CCN1C(=O)c2ccc(-c3ccccc3)n2CC1(C)C(=O)NC1CCCCC1 (stereo unspecified) | i
O=C(CSc1nnc2n(Cc3ccccc3)c(=O)c3ccccc3n12)Nc1ccc(F)cc1F | i
COCc1ccc2c(c1)c(OC(C)(C)C(=O)N1CCN(C)CC1)nn2Cc1ccccc1 | i
COc1cccc(N2C(=O)c3cc4sccc4n3CC2(C)C(=O)NC2CCC(C)CC2)c1 (stereo unspecified) | i
COc1ccc(CN2C(=O)COC[C@H]2C(=O)Nc2cc(F)cc(F)c2)cc1OC | i
C=C(C(=O)OC)[C@@H]1CC=C2C=CC(=O)[C@H](C)[C@@]2(C)C1 | i
CCn1c2c(c(=O)n1-c1ccccc1)CCN(Cc1ncccn1)C2 | i
Cc1cccc(-c2n[nH]n3c2nc(=O)c2ccc(C(=O)NCc4ccc(Cl)cc4)cc23)c1 | i
C/C=C1\[C@H](OC2OC(COC3OC(CO)C(O)C(O)C3O)C(O)C(O)C2O)OC=C(C(=O)OC)[C@H]1CC(=O)OCCc1ccc(O)cc1 (stereo partly specified) | i
CCC/C=C1\OC(=O)C2=C1CCC(O)C2O (stereo unspecified) | i
CN(Cc1cnn(C)c1)C(=O)c1csc2nc(-c3cccc(C(F)(F)F)c3)cn12 | i
CC1(C(=O)NC2CCCCCCC2)Cn2c(cc3occc32)C(=O)N1c1cccc(F)c1 (stereo unspecified) | i
CC(=O)OCC1=CCC2C(C)(C)CCCC2(C)C12CCC(C)(CC(=O)O)O2 (stereo unspecified) | i
CCCn1c(=O)c2ccc(C(=O)NC(C)C)cc2n2c(SCC(=O)NC3CCCCC3)nnc12 | i
O=C(c1ccc(F)cc1)N1CCCC(C(=O)N2CCC(c3nc4ncccc4[nH]3)CC2)C1 (stereo unspecified) | i
CC1(C)CC[C@]2(C(=O)O)CC[C@]3(C)C(=CCC4[C@@]5(C)C[C@@H](O)[C@H](O)[C@@](C)(CO)C5CC[C@]43C)C2C1 (stereo partly specified) | i

The closing 4 records of the part above lead into the next.
SMILES | Methyltransferases
CC(=O)OCC1=CCC2C(C)(C)CCCC2(C)C12CCC(C)(CC(=O)O)O2 (stereo unspecified) | i
CCCn1c(=O)c2ccc(C(=O)NC(C)C)cc2n2c(SCC(=O)NC3CCCCC3)nnc12 | i
O=C(c1ccc(F)cc1)N1CCCC(C(=O)N2CCC(c3nc4ncccc4[nH]3)CC2)C1 (stereo unspecified) | i
CC1(C)CC[C@]2(C(=O)O)CC[C@]3(C)C(=CCC4[C@@]5(C)C[C@@H](O)[C@H](O)[C@@](C)(CO)C5CC[C@]43C)C2C1 (stereo partly specified) | i
C[C@H]1CC(=O)C2=C(C1)C(O)C(O)[C@@]1(O)[C@H]2C(=O)c2cccc(O)c2[C@@H]1O (stereo partly specified) | i
CN1CCCC2(CCN(S(=O)(=O)c3ccc4[nH]c(=O)[nH]c4c3)C2)C1=O (stereo unspecified) | i
CCCn1c(=O)c2ccccc2n2c(=O)n(Cc3cccc(OC)c3)nc12 | i
COc1ccccc1CNC(=O)C[C@@H]1c2nc(-c3cccnc3)sc2C[C@@H]2[C@](C)(CO)[C@H](O)CC[C@]21C | i
C[C@H]1O[C@@H](O[C@H]2[C@@H](O)C[C@H](O[C@H]3[C@@H](O)C[C@H](O[C@H]4CC[C@@]5(C)[C@H](CC[C@@H]6[C@@H]5C[C@@H](O)[C@]5(C)[C@@H](C7=CC(=O)OC7)CC[C@]65O)C4)O[C@@H]3C)O[C@@H]2C)C[C@H](O)[C@@H]1O | i
Cc1ccc(NC(=O)N2CCn3cccc3C2Cc2ccccc2)c(C)c1 (stereo unspecified) | i
CCc1cc2c(cc3n2CC(C)(C(=O)NC2CCC(C)CC2)N(Cc2ccc(OC)cc2)C3=O)s1 (stereo unspecified) | i
Cc1nn(C)c(C)c1CCC(=O)NCCc1ncc(C)n1Cc1ccc(F)cc1 | i
COc1cc(/C=C/C(=O)O[C@H]2[C@H](OC(=O)/C=C/c3cc(OC)c(O)c(OC)c3)O[C@H](CO[C@@H]3O[C@H](CO)[C@@H](O)[C@H](O)[C@H]3O)[C@@H](O)[C@@H]2O)ccc1O | +
CC(=O)O[C@@H]1c2c3c(cc(O)c2C(=O)O[C@@H]1C)O[C@@]1(C)[C@@H](O)C[C@H]2C(C)(C)C(=O)C=C[C@]2(C)[C@@H]1C3 | i
NC(=O)c1ccc(O[C@@H]2COCC[C@H]2NC(=O)Cc2ccc(O)cc2)cc1 | i
CN(CCCNC(=O)C1(CCO)CC12CCOCC2)C1CCCCC1 (stereo unspecified) | i
C[C@H]1[C@@H]2[C@@H](O)C([C@H](C)C(=O)NCc3cccs3)CC[C@@]2(C)CC[C@@H]1NC(=O)COc1ccccc1 (stereo partly specified) | i
Cn1cc(CNC(=O)c2ccc(OC3CCN(S(C)(=O)=O)CC3)c(Cl)c2)cn1 | i
CC1=C(C)C(=O)OC(C(C)(O)C2CCC3C4CC=C5CC(OC6OC(COC7OC(CO)C(O)C(O)C7O)C(O)C(O)C6O)CC(O)C5(C)C4CCC32C)C1 (stereo unspecified) | i
COc1ccc(-c2cc3n(n2)CC(C)(C(=O)NCc2ccccc2OC)N(CCc2ccco2)C3=O)cc1 (stereo unspecified) | i
NCC(CNc1nc(Nc2cccc(NC(=O)N3CCCC3)c2)ncc1I)C(=O)c1cccs1 (stereo unspecified) | +
O=C(Nc1ccc(-c2ccnc(Nc3ccc(N4CCOCC4)cc3)n2)cc1)[C@@H]1CCCN1 | ?
Cc1cccc(OCCc2noc(C3CCN(C(=O)NC4CCCCC4)C3)n2)c1 (stereo unspecified) | i
c1ccc(OCCNc2nc(-c3cccnc3)nc3c2CCNCC3)cc1 | i
COc1ccc2cc3n(c2c1)CC(C)(C(=O)NC1CCCC1)N(CCc1cccs1)C3=O (stereo unspecified) | i
O=C(NCc1cccc(Cl)c1)c1sc(=S)n2c1[nH]c(=O)c1cc3c(cc12)OCO3 | +
Cc1cnc(C(=O)N2C[C@H]3OC(=O)N(CCc4cccc(Cl)c4)[C@H]3C2)[nH]1 | i
